miR-21 reporter – raises the signal of a miR-21 reporter; HeLa miR-21 FLuc reporter, luciferase, 48 h; Potency, µM (titrated, usually from 38.3 µM), for inactives: at the top dose reporter change, positive = more light; 340,000 tested, under 10 active; AID 2288; active = well fitted rising curve with a large enough effect; inconclusive = small, poorly fitted or top-dose-only effect; inactive = no such curve, though single readings can be large or run the other way;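 note: % of control where 0% means no effect; miR-21 action dims this reporter so a rising signal means less miR-21 action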
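HeLa cells endogenously expressing miR-21, stably carrying CMV-driven firefly luciferase with a downstream miR-21 binding site, 2000 cells/well. Titrations up to approximately 40 uM, 48 hours; luciferase luminescence read.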
Active calls of the source: *; ? = inconclusive; [ ] = dose if it differs, or a comment. Not all compounds are listed; the hit share may differ from the screen's.

SMILES	miR-21 reporter
O=C(NC1CCCCC1)c1ccc2c(c1)N(Cc1ccccc1Cl)C(=O)c1ccccc1S2	-11.5%
COc1ccc(OC(=O)c2nc(SCc3ccc(F)cc3)ncc2Cl)cc1	-4.3%
COc1ccc(-c2cn3nc(N4CCCC(C(=O)Nc5cccc(Cl)c5C)C4)sc3n2)cc1 (stereo not drawn)	2.0%
Cc1ccc(C(CC(=O)Nc2ccc(C)cc2C)N2Cc3ccccc3C2=O)cc1 (stereo not drawn)	22.3%
COc1ccc(CCN2C(=O)NC(NC(=O)c3ccccc3OC)(C(F)(F)F)C2=O)cc1OC (stereo not drawn)	-12.9%
Cc1ccc(CNC(=O)C2CCN(C(=O)c3cnn(-c4ccccc4)c3-n3cccc3)CC2)cc1	18.1%
Cc1ccc(-n2ncc(C(=O)NC3CCCCC3)c2C2CCN(C(=O)OC(C)(C)C)CC2)cc1	-4.2%
COc1ccc(Cn2c(CNS(=O)(=O)c3ccc(Cl)s3)nc3cccnc32)cc1	-3.4%
O=C(CSc1cn(CCNC(=O)c2ccccc2F)c2ccccc12)Nc1ccc2c(c1)OCCO2	?
COc1ccc(C(=O)c2cn(Cc3ccccc3F)c3ccc(F)cc3c2=O)cc1	3.6%
COc1ccc(C)cc1NC(=O)N(C(C)C)C1CCN(C(C)=O)CC1	-18.7%
CCc1ccccc1N1CC(c2nnc(NC(=O)c3ccco3)s2)CC1=O (stereo not drawn)	-17.5%
CCc1ccc(OC(C)c2nc(-c3ccc(-n4cccc4)cc3)no2)cc1 (stereo not drawn)	-3.7%
Cc1ccc(C)c(NC(=O)c2cc(S(=O)(=O)N3CCCc4ccccc43)ccc2F)c1	13.6%
CCN(CCCNC(=O)c1cc2cc3cc(C)ccc3nc2s1)c1cccc(C)c1	-21.6%
Cc1ccccc1OCC(=O)Nc1c(C(=O)Nc2ccccc2F)oc2ccccc12	-4.7%
Cc1cc(-c2ccc(C)c(S(=O)(=O)Nc3cccc(C#N)c3)c2)on1	8.5%
CCc1ccc(NC(=O)Cn2nnc(C(=O)Nc3ccc(F)cc3)c2N)cc1	-1.6%
O=C(Nc1cccc(Br)c1)c1cc(S(=O)(=O)N2CCCCC2)c[nH]1	-14.2%
CCN(CC)S(=O)(=O)c1cccc(C(=O)Nc2ccccc2C(=O)Nc2ccc(Cl)cc2)c1	17.0%
CC(C)c1ccc(NC(=O)c2cc(S(=O)(=O)NCCc3ccccc3)ccc2F)cc1	17.7%
CCc1sc(Nc2cccc(C)c2C)nc1-c1cc2cccc(OC)c2oc1=O	-5.9%
COc1ccc(OC)c(CCNC(=O)c2cc3c(=O)oc4ccc(C)cc4c3s2)c1	-1.3%
COc1ccc2oc(-c3ccc(C)c(NC(=O)c4ccc(-c5ccccc5[N+](=O)[O-])o4)c3)nc2c1	-35.9%

Single entries from the results shown.
CCc1sc(Nc2cccc(C)c2C)nc1-c1cc2cccc(OC)c2oc1=O in miR-21 reporter reads -5.9%
COc1ccc2oc(-c3ccc(C)c(NC(=O)c4ccc(-c5ccccc5[N+](=O)[O-])o4)c3)nc2c1 in miR-21 reporter reads -35.9%

(further entries)
SMILES	miR-21 reporter
CCCN(CCC)CCNC(=O)C1CCN(c2nc3ccc(CC)cc3s2)CC1	16.6%
COc1ccc(NC(=O)c2ccco2)cc1NC(=O)c1cc(OC)c(OC)c(OC)c1	17.2%
O=[N+]([O-])c1cc(-c2nc(-c3ccccc3)no2)ccc1N1CCCCC1	-18.3%
COc1cc(NC(=O)Cn2c(C)cc(C)c(C#N)c2=O)cc(OC)c1	-0.5%
COc1cccc(C2=NN(C(C)=O)C(c3cn(-c4ccccc4)nc3-c3cccs3)C2)c1 (stereo not drawn)	-0.4%
O=C(Nc1ccccc1F)c1ccc(Cn2nc(N3CCN(c4ccccc4)CC3)ccc2=O)o1	28.5%
Cc1cc(F)ccc1NC(=O)c1sc2nc(-c3cccs3)ccc2c1N	2.1%
CCCCCNC(=O)c1ccc2c(c1)nc(C)n2-c1cccc(C)c1	?
Cc1c(C(=O)NCc2ccccc2Cl)sc2nc(-c3ccc(F)cc3)cn12	-14.3%
CSc1nnc2[nH]c(=O)cc(C)n12	-3.4%
O=C(CSc1nc2c([nH]c3ccccc32)c(=O)n1-c1ccccc1F)Nc1cccc(Cl)c1	?
COc1ccc(NC(=O)CCn2cnnn2)cc1	-5.1%
O=C(Cn1cc(SCc2ccc(C(F)(F)F)cc2)c2ccccc21)N1CCCCC1	-15.7%
Cc1ccccc1Cn1c2ccccc2c2cnn(CC(=O)NC3CCC(C)CC3)c(=O)c21 (stereo not drawn)	-0.3%
Cn1c(C(=O)NCc2ccccc2Cl)cc2sc(Cl)cc21	-0.6%
CCn1c(=O)c2sccc2n2c(CCCC(=O)N3CCN(c4ccc(OC)cc4)CC3)nnc12	8.9%
Cc1nnc(N2CCC(C(=O)NCCc3ccccc3Cl)CC2)c2nn(-c3ccccc3)c(C)c12	3.9%
CCOc1ccc(C(=O)NCCS(=O)(=O)N2CCN(c3ccccc3F)CC2)cc1OCC	-1.7%
CCc1nn(CC(=O)NCCc2ccc(Cl)cc2)c(=O)c2cc3ccccc3n12	-1.5%
O=C(Nc1cccc2cccnc12)c1cccc2c(Br)cccc12	-4.4%
O=C(Nc1cc(-c2nc3ccccc3o2)ccc1Cl)c1sc2c([N+](=O)[O-])cccc2c1Cl	-29.7%
Cc1ccc(S(=O)(=O)c2nc(-c3ccc(F)cc3)oc2SCC(=O)c2ccccc2)cc1	3.6%
Cc1cccn2c(=O)cc(COc3cccc(NC(=O)COc4ccccc4)c3)nc12	-4.0%
COc1cccc(NC(=O)CCSc2nc(-c3ccco3)cc(C(F)(F)F)n2)c1	-0.7%
CCOc1ccccc1NC(=O)C1CCN(S(=O)(=O)c2cccs2)CC1	-6.7%
Cc1ccc2c(c1)-c1nc(-c3ccc4c(c3)NC(=O)CO4)cc(-c3ccccc3)c1CO2	-2.3%
Cc1ccc(C)c(NC(=O)CSc2nc(=O)n(Cc3ccccn3)c3c2CCC3)c1	7.2%
COc1ccc(NC(=O)Nc2c[nH]c(=O)[nH]c2=O)c(OC)c1	3.3%
Cc1ccc2oc(=O)c3cnn(CC(=O)N4CCN(c5cc(Cl)ccc5C)CC4)c3c2c1	4.0%
O=C(Nc1cc(Cl)cc(Cl)c1)c1ccc(F)c(S(=O)(=O)NCc2ccccc2Cl)c1	29.0%
COC(=O)c1ccccc1NC(=O)CSc1nc(-c2ccccc2)cc(C(F)(F)F)n1	4.5%
Cc1c(Cl)cccc1NC(=O)c1ncoc1-c1ccco1	-0.5%

Next part
Compound	miR-21 reporter
CCOc1ccc(OCC)c(NC(=O)c2csc3c2CCCC3)c1	-4.4%
COc1ccc(S(=O)(=O)N2CCC(Oc3ccc(-n4cnnn4)cc3)CC2)cc1OC	8.5%
CCS(=O)(=O)N1CCC(n2c(C(F)(F)F)nc3cccnc32)CC1	-7.2%
O=C(Nc1ccc(F)c(Cl)c1)c1ccc2c(Cl)c3c(nc2c1)CCCC3	-25.2%
COc1ccc(-c2c(C)nn3c(-c4ccccc4)cc(C)nc23)cc1OC	-5.2%
Cc1ccc2nc(SCc3nc(-c4ccccc4C)no3)[nH]c2c1	15.9%
CCOc1ccc(C2C(=O)N(C3CCCCCC3)CC(=O)N2Cc2ccc(C)cc2)cc1OC (stereo not drawn)	-7.0%
COc1ccccc1N1CCN(C(CNC(=O)C(=O)NCc2ccc(F)cc2)c2cccnc2)CC1 (stereo not drawn)	?
Cc1ccc(-c2nc(CS(=O)CC(=O)N3CCN(c4ccc(Cl)cc4)CC3)c(C)o2)cc1 (stereo not drawn)	16.1%
CNS(=O)(=O)c1cn(CC(=O)N2CCN(c3cccc(Cl)c3)CC2)cc1S(=O)(=O)NC	4.2%
Cc1ccc(/C=C(\C#N)C(=O)Nc2cccc(Cl)c2)o1	-63.5%
C=CCC1(CC=C)CCCN1C(=O)c1cc(COc2cncc(Cl)c2)on1	16.0%
Cc1cc(C)c(/C=C/c2onc(C)c2S(=O)(=O)N2CCC(C(=O)Nc3cccc(C)c3C)CC2)c(C)c1	-4.8%
CCn1c2c(c(=O)n3ncc(C(=O)Nc4ccc(C(=O)OC)cc4)c13)CN(Cc1ccc(OC)cc1)CC2	-5.5%
CCc1ccc2occ(CC(=O)Nc3c(C(=O)c4ccc(C)cc4)oc4ccccc34)c2c1	-6.3%
CCOc1ccc(-n2c(=O)c3c4c(sc3n(CC(=O)NC(C)CC)c2=O)CCCC4)cc1 (stereo not drawn)	4.7%
CCOC(=O)c1cc(-c2ccccc2)n(CCC(=O)Nc2ccc(OC)c(Cl)c2)c1C	15.4%
Oc1ccc(NCc2ccc(OCc3ccccc3Cl)cc2)cc1	1.0%
CCCCN(CC)CCCNC(=O)Cn1ncc2c([nH]c3ccc(C)cc32)c1=O	-1.4%
CCOc1ccc(CCNC(=O)c2nn(-c3ccc(OC)c(Cl)c3)c(=O)c3c2c2ccccc2n3C)cc1OCC	-2.9%
Cc1cccc(CN2C(=O)CC(c3ccc(Cl)cc3)c3c(C)nn(-c4nc(C)cc(C)n4)c32)c1 (stereo not drawn)	-0.2%
Fc1ccc(CNc2nc3c(-c4ccc(F)cc4)nnn3c3ccccc23)cc1	-4.8%
CCOC(=O)c1noc2ncnc(N3CCN(c4ccccc4OC)CC3)c12	-9.1%
COc1ccc(-c2cc3nc(C)c(CCC(=O)N4CCN(c5ccccc5F)CC4)c(C)n3n2)c(OC)c1	2.7%
Cc1nc2ccn(Cc3ccco3)c(=O)c2cc1C(=O)NCc1ccccc1F	13.2%
CCCn1cnc2cc(NCc3ccc(OC)cc3OC)ccc21	-24.3%
CCOc1ccc(OCC)c(NC(=O)c2cc(C)nc3c2c(C)nn3-c2cccc(Cl)c2C)c1	-0.9%
CN(C)S(=O)(=O)c1ccc(C(=O)Nc2c(C(=O)Nc3ccc(F)cc3)oc3ccccc23)cc1	-24.3%
Cc1cc(S(=O)(=O)C(CNC(=O)COc2ccc(Cl)cc2)c2cccs2)ccc1F (stereo not drawn)	?
CCCC[C@]12Cc3c(ccc4ccccc34)C(O1)C1=C(O2)C(=O)c2ccccc2C1=O	-1.1%[7.66 µM]
COc1cc(OC)c(NC(=O)CCc2c(C)nc3ncnn3c2C)cc1Cl	-4.7%
CCc1nn(CC(=O)NC(C)CCc2ccccc2)c(=O)c2cc3c(OC)cccc3n12 (stereo not drawn)	-3.7%
O=C(c1cccc([N+](=O)[O-])c1)N1CCN(c2ccc(Nc3ccccc3)nn2)CC1	-1.7%
COc1ccc(CSc2nc3ccncc3n2Cc2nc(-c3ccc(OC)c(OC)c3)oc2C)cc1	-29.6%
O=C(COc1ccccc1[N+](=O)[O-])Nc1ccc(-c2nc3ccccc3s2)cc1	-35.9%
COc1ccc(-n2nc(C(=O)Nc3ccccc3OC)c3c4ccccc4n(C)c3c2=O)cc1Cl	-0.5%
COc1ccc(NC(=O)CCSc2nc(-c3ccco3)cc(C(F)(F)F)n2)cc1	-6.0%
CCCCN(C)C(=O)CSc1c2c(nc3ccc(Cl)cc13)CCCC2	20.3%
Cc1cc(C)cc(Oc2c(C(F)(F)F)oc3cc(OCC(=O)NC4CCCCC4)ccc3c2=O)c1	-0.3%
Cc1ccc(CN(Cc2ccco2)C(=O)COc2ccc(Cl)cc2)o1	14.0%
COc1ccc(NC(=O)c2sc3nc4c(cc3c2N)CCCCCC4)c(OC)c1	-2.2%
O=C1CCCc2cc(S(=O)(=O)N3CCCC(C(=O)Nc4ccc(F)c(Cl)c4)C3)ccc2N1 (stereo not drawn)	23.7%
C=CCc1ccccc1OCCSc1nc(-c2ccccc2F)nc2cc(=O)[nH]n12	-28.3%
CCOc1ccc(Nc2c(S(=O)(=O)c3ccccc3)cnc3ccccc23)cc1	22.3%
COc1ccc(-c2nc(CS(=O)CC(=O)NCCc3ccc(Cl)cc3)c(C)o2)cc1OC (stereo not drawn)	-7.2%
CCCCN(C)CCCNC(=O)c1ccc2nc(N3CCCCC3)sc2c1	-34.9%
COc1cccc(NC(=O)Cn2cc(C(=O)c3ccc(C)cc3)c(=O)c3cc(OC)ccc32)c1	9.9%
COc1ccc(NC(=O)CN(Cc2ccccc2)S(=O)(=O)c2ccc(C)cc2)cc1Cl	20.8%
COCCNC(=O)c1ccccc1NC(=O)c1nsc2ccccc12	3.5%
COc1ccccc1CNC(=O)c1cnn2c(C)c(Cc3ccc(F)cc3)c(C)nc12	-9.4%
COc1ccc(CCNC(=O)NCc2noc3ccccc23)c(OC)c1	-14.0%
CCC(C(=O)N1CCN(c2ccccc2)CC1)n1c(C)c2cnn(-c3ccccc3)c(=O)c2c1C (stereo not drawn)	2.7%
Cc1cccc(CCn2c(=O)c3ccccc3n(Cc3ccccc3C)c2=O)c1	-3.7%
COc1ccc(CNC(=O)C2CCN(S(=O)(=O)c3ccc4nc5c(c(C(=O)O)c4c3)CCCC5)CC2)cc1	0.2%
COc1ccc(N2CCN(C(=O)c3cccc(-n4c(C)nc5cccnc54)c3)CC2)cc1	10.6%
COc1ccc(-c2noc(CCC(=O)NCc3ccc(C)cc3)n2)cc1	-6.5%

Of the compounds above, seven contain an NH in an aromatic ring.
Compound	miR-21 reporter
O=C(Nc1cccc(Br)c1)c1cc(S(=O)(=O)N2CCCCC2)c[nH]1	-14.2%
CSc1nnc2[nH]c(=O)cc(C)n12	-3.4%
O=C(CSc1nc2c([nH]c3ccccc32)c(=O)n1-c1ccccc1F)Nc1cccc(Cl)c1	?
COc1ccc(NC(=O)Nc2c[nH]c(=O)[nH]c2=O)c(OC)c1	3.3%
Cc1ccc2nc(SCc3nc(-c4ccccc4C)no3)[nH]c2c1	15.9%
CCCCN(CC)CCCNC(=O)Cn1ncc2c([nH]c3ccc(C)cc32)c1=O	-1.4%
C=CCc1ccccc1OCCSc1nc(-c2ccccc2F)nc2cc(=O)[nH]n12	-28.3%

Assay outcomes from PubChem BioAssay.
